Screens from PubChem BioAssay.
YopH inh = YopH tyrosine phosphatase inhibitors, primary screen, biochemical, fluorescence Ex485/Em525; YopH tyrosine phosphatase [Yersinia enterocolitica]; inhibition, %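 (about 10 µM by stock and volumes)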; actives 0.16% (n = 140,000);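 active = inhibition of 50% or more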;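 note: controls were vehicle for no effect and minimum signal wells for full effect; inactives centre near -20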
Mtb bLac sens = beta-lactam sensitization of Mtb H37Rv, H37Rv; M. tuberculosis H37Rv growth with meropenem, percent inhibition; hits of this screen are not shown here; inhibition, % at 25 µM; actives 0.27% (n = 330,000); AID 434955, 2010;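 active = about 74% or more and at least 40 points above the plate without the antibiotic, then above 30% in a dose series; inconclusive = first-round hits that could not be retested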;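 note: growth measured after seven days incubation then overnight dye step; 0% = bacteria only wells and 100% = bacteria with antibiotic; twin plates without the antibiotic show which effects depend on it; some results filed as inactive read as strong as hits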
RecA splice inh = Mtb RecA intein splicing inhibitors, primary screen, biochemical, fluorescence, HTS | Protein RecA (Mycobacterium tuberculosis (strain ATCC 25618 / H37Rv)), P9WHJ3 | cell-free RecA intein splicing | inhibition, %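 (about 9 µM by stock and volumes)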 | actives 0.75% (n = 290,000) | AID 2221, 2009; in the data active = inhibition above about 30%; inconclusive = no clear call, values can overlap the other calls;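 note: 0% = vehicle wells and 100% = reference inhibitor control wells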
Target sequence (P9WHJ3 whole entry, looked up, canonical isoform): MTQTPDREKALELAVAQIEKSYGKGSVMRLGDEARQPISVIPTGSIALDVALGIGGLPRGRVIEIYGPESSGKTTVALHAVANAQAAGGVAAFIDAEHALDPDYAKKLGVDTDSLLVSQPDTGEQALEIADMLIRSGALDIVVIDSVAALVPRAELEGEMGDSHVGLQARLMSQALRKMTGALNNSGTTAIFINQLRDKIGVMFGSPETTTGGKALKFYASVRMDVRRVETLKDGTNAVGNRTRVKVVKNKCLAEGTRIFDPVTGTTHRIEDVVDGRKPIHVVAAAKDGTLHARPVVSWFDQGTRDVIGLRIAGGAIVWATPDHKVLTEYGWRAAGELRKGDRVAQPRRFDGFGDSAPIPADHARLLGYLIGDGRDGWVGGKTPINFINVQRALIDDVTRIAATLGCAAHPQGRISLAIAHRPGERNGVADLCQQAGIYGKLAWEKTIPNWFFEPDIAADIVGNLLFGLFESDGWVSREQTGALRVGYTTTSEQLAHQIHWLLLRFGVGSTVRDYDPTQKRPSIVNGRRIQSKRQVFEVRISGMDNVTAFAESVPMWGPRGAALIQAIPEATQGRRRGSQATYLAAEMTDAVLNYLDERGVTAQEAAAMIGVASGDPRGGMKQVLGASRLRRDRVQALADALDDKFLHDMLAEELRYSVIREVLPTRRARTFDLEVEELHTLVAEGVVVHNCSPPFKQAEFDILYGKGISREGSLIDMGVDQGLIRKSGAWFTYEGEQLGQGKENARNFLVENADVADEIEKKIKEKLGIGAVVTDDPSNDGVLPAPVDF
Arbovirus anti = antivirals against arbovirus infection, primary screen, cell-based, full library, 10K replicate subset | actives 0.37% (n = 200,000) | arbovirus infection cell-based antiviral screen | inhibition, % at 10 µM;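 active = inhibition from about 30%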;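 note: bluetongue infection of BSR cells; cell survival read as ATP light after 72 h; 0% = infected wells without compound and 100% = uninfected wells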
Mtb growth = M. tuberculosis H37Rv growth inhibitors, H37Rv strain (AID 1626); M. tuberculosis H37Rv growth inhibition; higher % means a stronger effect; inhibition, % at 10 µM, or IC50 in µM where a hit was titrated; actives 0.95% (n = 220,000);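 active = confirmed in a dose series; inconclusive = inhibition above 80% but not taken into the dose series; inactive = below 80% or under 30% at every dose of the series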;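 note: bacteria incubated seven days before Alamar blue readout; 0% = bacteria only wells and 100% = bacteria with antibiotic wells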
Arbovirus anti repeat = further read-out of Arbovirus anti, marked with its call; inhibition, %; measured here: 10K subset replicate screen; many hits read low in the repeat;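 first of two repeat runs on a subset; 0% = infected and 100% = uninfected wells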
The depositor's hits bear a star; u = inconclusive; x = not tested or not shown. A portion of the library. The share of hits here may be higher or lower than overall.

SMILES	YopH inh	Mtb bLac sens	RecA splice inh	Arbovirus anti	Mtb growth	others
CCN(CC(=O)Nc1ccc(Cl)c(S(=O)(=O)N(C)C)c1)Cc1nc2ccccc2c(=O)[nH]1	x	-8	2.6	-3	-1%
Cc1nc(NCCc2ccc(Cl)cc2)c2nnn(Cc3ccccc3)c2n1	x	5	3.3	x	x
CCOC(=O)N1CCN(C(=O)Cc2ccc(Cl)cc2)CC1	-33	3	-1.3	5	1%	Arbovirus anti repeat=7
Cc1cc(=O)oc2cc(OCC(=O)c3ccc4c(c3)NC(=O)CO4)ccc12	x	1	1.4	-12	-9%
Cc1c(C(=O)Nc2ccccc2C(=O)N2CCOCC2)cccc1[N+](=O)[O-]	-30	-2	-2.6	6	-7%
O=C(CSc1nc2ccccc2c(=O)n1-c1ccccc1F)Nc1ccc2c(c1)CCC2	-32	2	11	-22	9%
CC(OC(=O)CNS(=O)(=O)c1ccc(C#N)cc1)C(=O)Nc1cccc(C#N)c1 (stereo not given)	x	-2	-1.4	x	x
CC(=O)OC[C@H]1O[C@H](C/C=N/OC[C@@H](O)[C@H]2O[C@@H]3OC(C)(C)O[C@@H]3[C@H]2O)C=C[C@@H]1OC(C)=O	-26	-13	-0.6	5	x
O=[N+]([O-])c1ccc(NCCN2CCOCC2)c([N+](=O)[O-])c1	x	-6	-0.3	x	x
CCOC(=O)N1CCc2c(sc3ncn(C)c(=O)c23)C1	x	9	-0.9	x	x
COc1ccc(N(C)C(=O)C2CCN(S(=O)(=O)c3cccc4nonc34)CC2)cc1	x	-1	-2.3	x	x
O=S(Cc1ccc(Cl)cc1)CC(O)COc1ccc(Cl)cc1 (stereo not given)	-28	6	2.3	2	11%
O=S(=O)(c1cc(-c2nc3ccccc3s2)ccc1Cl)N1CCOCC1	-24	x	x	7	-14%
COc1ccc(CC(=O)NNS(=O)(=O)c2ccccc2)cc1OC	x	-5	-7.9	2	-4%
Cc1nc([N+](=O)[O-])c(Br)n1CC(=O)c1cccc([N+](=O)[O-])c1	x	97	-0.1	-24	14%
CCC1Sc2ccccc2N(CC(=O)NC2CCCC2)C1=O (stereo not given)	-17	-4	1.4	8	-16%
C=CCNC(=O)/C(C#N)=C/c1c(N2CCN(c3ccc(OC)cc3)CC2)nc2c(C)cccn2c1=O	x	0	0.0	x	x
Cc1ccc(-c2ccc(SCC(=O)Nc3ccc4c(c3)OCCO4)nn2)cc1	-17	-1	2.4	-6	u
CC(C)c1cc(C(=O)N2CCCC(Nc3ccc(F)cc3)C2)nc(N)n1 (stereo not given)	x	-10	-1.2	x	x
O=C(Nc1ccsn1)c1ccc(Cl)cc1Cl	x	-4	-0.5	x	4%
CCc1ccc(C(=O)NNC(=O)C2CC(=O)N(Cc3ccccc3)C2)cc1 (stereo not given)	x	-12	-1.9	x	x
Cc1ccc(Cl)cc1N1CCN(S(=O)(=O)c2c(C)[nH]c(C)c2C(=O)N2CCCC2)CC1	x	u	1.4	x	x
COc1ccccc1N(CC(=O)N1CCCC1)S(=O)(=O)c1ccc(C)cc1	x	-8	-1.4	x	x
CCc1nnc(NC(=O)c2oc3cc(C)c(C)cc3c2C)s1	-6	-2	-1.3	-3	-8%
CSc1nc(Oc2ccc(Cl)cc2)c2sccc2n1	-7	-6	-2.9	-11	4%
CC(C)CN1C(=O)C(NC(=O)C2CC2)(C(F)(F)F)C2=C1CC(C)(C)CC2=O (stereo not given)	-28	4	-1.8	0	-5%
CCOCCCn1c(SCC(=O)Nc2ccccc2)nc2ccccc2c1=O	x	-7	-0.3	x	x
COC(=O)c1ccc(Sc2ccccn2)c([N+](=O)[O-])c1	-27	-5	2.5	0	-5%
COc1cc(C(C)=O)ccc1OCC(O)CNCC(O)c1ccccc1 (stereo not given)	x	-4	-0.9	x	x
CC(OCCN(C)C)C(=O)C12CC3CC(CC(C3)C1)C2 (stereo not given)	x	-6	1.5	x	-7%
O=C1c2ccccc2C(=O)N1CCN1CCc2ccccc21	-16	-7	2.4	6	-6%
Cc1ccc(-n2c(SCC(=O)N/N=C/c3ccccc3C(=O)O)nnc2-c2ccccc2)cc1	x	-4	3.8	x	-14%
COc1ccc(C2C(C(C)=O)=C(C)N=c3s/c(=C/c4ccc5c(c4)OCO5)c(=O)n32)cc1 (stereo not given)	-20	x	0.9	-2	x	Arbovirus anti repeat=0
O=C(NCc1ccco1)c1nc(-c2ccc(F)cc2)no1	x	-5	1.8	-2	10%
O=C(NN1CCOCC1)c1cccc(Br)c1	x	-1	0.2	x	x
Cc1nnc(SCC(=O)Nc2ccc([N+](=O)[O-])cc2)n1CC1CCCO1 (stereo not given)	x	-5	0.0	x	x
CCOC(=O)Cn1c(=O)n(Cc2ccco2)c(=O)c2ccc(C(=O)NC3CCCC3)cc21	-47	96	-0.3	-6	57%
O=C(O)CC(Cc1ccc(Cl)cc1)C(=O)Nc1cc(Cl)ccc1Cl (stereo not given)	x	-7	-0.9	x	x
O=C(NC(=S)Nc1cccc2cnccc12)c1ccccc1	x	-5	4.1	3	2%
Cc1ccc(C(O)(C(=O)NNc2ccccn2)c2ccc(C)cc2)cc1	x	2	0.3	-19	2%
COc1cc(/C=C2\SC(=S)N(CCC(=O)NCCc3ccccc3)C2=O)cc(OC)c1OC	x	-3	7.3	x	x
Cc1cccc(N2C(=O)CC(N3CCN(C(=O)c4ccccc4)CC3)C2=O)c1 (stereo not given)	7	-14	0.8	4	-4%
Cn1ccnc1Sc1nc2ccccc2nc1NS(=O)(=O)c1ccccc1	-33	10	-10.0	-4	-14%
CCc1c(C)sc(NC(=O)c2cc(C(C)C)on2)c1C#N	x	5	-3.1	4	5%
O=C(CN1CCCC1)Nc1cc(C(F)(F)F)ccc1Cl	x	-1	2.4	4	-1%
COC(=O)N/N=C(\CCC(=O)O)c1cccs1	x	-6	2.8	x	-3%
C=CCOc1ccc(C(=O)Nc2ccccc2C(=O)NCc2cccnc2)cc1	x	38	5.3	x	x
C[C@@H]1CCC(=O)N(C[C@@H](C)CSc2ccccc2)CC1	x	-7	-4.1	x	x
O=C(O)C1CC=CCC1C(=O)Nc1ccc(N2CCN(Cc3ccccc3)CC2)cc1 (stereo not given)	-4	1	3.0	-8	-1%
COc1ccccc1N1CCN(Cc2ccc(Br)o2)CC1	-28	-4	x	2	-7%
NS(=O)(=O)c1ccc(NC(=O)c2cccc(Cl)c2)cc1	x	-4	-0.4	x	-11%
CC(=O)NN1C(=O)c2ccc(Oc3ccc([N+](=O)[O-])cc3)cc2C1=O	-43	1	-0.1	0	-9%
CC(NC(=O)c1ccc(N(C)C)cc1)c1ccc(F)cc1 (stereo not given)	x	4	-1.8	1	-1%
CCCC(=O)N1CCN(Cc2nc3cc([N+](=O)[O-])ccc3n2C)CC1	x	-6	0.1	x	x
COc1ccc(OC)c(NC(=O)COC(=O)c2ccc(-n3cnnn3)cc2)c1	-28	5	-2.2	-2	-5%
O=Cc1[nH]c2ccccc2c1N(C(=O)CCl)c1ccccc1	x	x	-26	x	-8%
CCC(CC)NC(=O)c1ccc2nc[nH]c2c1	-20	-8	-1.2	9	-2%
O=C(C1CC1)N1CCC(c2nc(-c3ccc(S(=O)(=O)N4CCCC4)cc3)no2)CC1	-11	2	0.1	-2	1%
O=C(CSc1nnc(-c2ccccc2O)o1)Oc1ccc(Br)cc1	-10	-2	3.3	10	-6%
O=C(O)c1ccccc1NC(=O)c1ccccc1Nc1ccccc1	x	10	7.4	x	x

Remaining list, next part
SMILES	YopH inh	Mtb bLac sens	RecA splice inh	Arbovirus anti	Mtb growth	others
COc1ccc(CN2CCC(Oc3cc(C(=O)NC4CC4)ccc3OC)CC2)c(O)c1	x	-6	0.1	x	x
CS(=O)(=O)N(CC(=O)N1CCCCCC1)c1cccc([N+](=O)[O-])c1	x	-7	0.3	x	x
COc1ccc(OC)c(NC(=O)c2cn(C)c(=O)c3cc(OC)c(OC)cc23)c1	-58	-3	5.1	4	x	Arbovirus anti repeat=0
O=C(O)c1ccccc1-c1nc2cc(Cl)ccc2c(=O)n1O	x	-1	-8.8	-1	-3%
O=C1c2ccccc2C(=O)N1CN(C(=O)COc1ccccc1)c1ccccc1	-4	6	1.6	-1	-3%
COc1ccc(CNC(=O)c2ccc(N3CCC4(CC3)CC(c3ccc(Cl)cc3)=NO4)c(N)c2)cc1	x	98	4.7	x	-5%
CCOC(=O)c1oc2ccccc2c1CSc1nnnn1-c1ccc(C)cc1	-18	1	-3.4	0	-1%
COc1ccc(-c2nc(Cc3ccc(Cl)cc3)no2)cc1OC	-12	18	4.2	2	2%
COc1ccc(CNCCc2ccc([N+](=O)[O-])cc2)c(OC)c1OC	x	-3	-8.7	x	x
N#Cc1cc(N)ccc1-n1cccc1	x	96	-2.9	x	75%
Nc1ccc(NC(=O)c2cccc(C(=O)Nc3ccc(N)cc3Cl)c2)c(Cl)c1	x	8	0.5	x	x
COC(=O)c1ccc(N2OC3(C)C=CC2CC3)cc1 (stereo not given)	-24	10	1.0	5	2%
C=CCn1cc(C(=O)N2CCN(C)CC2)c(=O)c2cc(S(=O)(=O)N3CCCC3)ccc21	-33	-2	0.5	1	x	Arbovirus anti repeat=6
O=[N+]([O-])c1ccc(O)c2ncccc12	-64	82	43*	-36	79%
COc1cc(SC)ccc1C(=O)N1CC(C)OC(C)C1 (stereo not given)	x	-1	0.3	-2	2%

Part of the list above in order of molar mass, largest number first.
SMILES	YopH inh	Mtb bLac sens	RecA splice inh	Arbovirus anti	Mtb growth	others
COc1ccc(CNC(=O)c2ccc(N3CCC4(CC3)CC(c3ccc(Cl)cc3)=NO4)c(N)c2)cc1	x	98	4.7	x	-5%
C=CCn1cc(C(=O)N2CCN(C)CC2)c(=O)c2cc(S(=O)(=O)N3CCCC3)ccc21	-33	-2	0.5	1	x	Arbovirus anti repeat=6
COc1ccc(CN2CCC(Oc3cc(C(=O)NC4CC4)ccc3OC)CC2)c(O)c1	x	-6	0.1	x	x
CCOC(=O)c1oc2ccccc2c1CSc1nnnn1-c1ccc(C)cc1	-18	1	-3.4	0	-1%
O=C1c2ccccc2C(=O)N1CN(C(=O)COc1ccccc1)c1ccccc1	-4	6	1.6	-1	-3%
CS(=O)(=O)N(CC(=O)N1CCCCCC1)c1cccc([N+](=O)[O-])c1	x	-7	0.3	x	x
COc1ccc(-c2nc(Cc3ccc(Cl)cc3)no2)cc1OC	-12	18	4.2	2	2%
O=C(O)c1ccccc1-c1nc2cc(Cl)ccc2c(=O)n1O	x	-1	-8.8	-1	-3%
COc1cc(SC)ccc1C(=O)N1CC(C)OC(C)C1 (stereo not given)	x	-1	0.3	-2	2%
COC(=O)c1ccc(N2OC3(C)C=CC2CC3)cc1 (stereo not given)	-24	10	1.0	5	2%
O=[N+]([O-])c1ccc(O)c2ncccc12	-64	82	43*	-36	79%
N#Cc1cc(N)ccc1-n1cccc1	x	96	-2.9	x	75%

Continued.
SMILES	YopH inh	Mtb bLac sens	RecA splice inh	Arbovirus anti	Mtb growth	others
Cc1noc(C)c1COc1ccc(C(=O)OCC(=O)NCCN2C(=O)CSC2=O)cc1	x	0	6.2	-3	7%
N#CC1CN(Cc2ccccc2)CN(Cc2ccccc2)C1	x	-3	-0.7	x	-9%
CC(C)c1cc(C(=O)N/N=C/c2cccnc2)cs1	-23	4	2.1	-4	3%
O=C(Nc1cccc(C(=O)N2CCOCC2)c1)NC1CCCCC1	4	1	0.6	2	-3%
Cc1cccc(C)c1NC(=O)CNCC(=O)N(C)C	x	-3	-3.0	1	-3%
Clc1ccc(CN2CCSCC2)c(Cl)c1	x	0	0.9	x	x
COc1ccccc1NS(=O)(=O)c1ccc(OC)c([N+](=O)[O-])c1	x	5	-2.3	3	6%
CCCCn1c2c(c3ccccc31)CCc1nonc1-2	-27	3	15	3	2%	Arbovirus anti repeat=6
COc1ccc(Cn2ccnc2SCC(=O)Nc2nnc(C)s2)cc1	x	4	-0.8	x	x
C=CCOC(=O)CCP(=O)(CCC(=O)OCC=C)c1ccccc1	-30	-15	-0.7	1	-3%	Arbovirus anti repeat=1
O=C(COc1ccccc1)Nc1ccc(S(=O)(=O)N2CCCCCC2)cc1	9	1	-0.4	-5	-6%
CC(C)CN1C(=O)C(=O)N(CC(=O)NC2CCCc3ccccc32)C1=O (stereo not given)	x	-9	-7.0	7	-9%
CCCOC(c1ccccc1)(c1ccc(C(F)(F)F)cc1)C(Oc1nc(C)cc(C)n1)C(=O)O (stereo not given)	x	-1	1.8	x	x
